# Assay outcomes deposited in PubChem by National Center for Advancing Translational Sciences (NCATS).
# SARS PLpro yeast = SARS-CoV PLP inhibition in yeast | S. cerevisiae expressing SARS-CoV PLpro, growth rescue; control for the full effect not named in the record | Potency, µM (series often up to 32.9 µM), inactives show at the top dose activity, positive = growth rescue | 330,000 tested, 0.19% active | AID 485353; active means well fitted rising curve with a large enough effect; inconclusive means small, poorly fitted or top-dose-only effect; inactive means no such curve, though single readings can be large or run the other way; note: 0% is about no effect; nearly all actives have a fitted effect of over 55% in size; growth read by luminescence after 48 h
# Cruzain Triton = inhibitors of Trypanosoma cruzi cruzain with detergent; P25779; Potency, µM, for inactives: max response, negative = inhibition, hits mostly inhibitors; AID 1478; 200,000 tested, 0.43% active; purified cruzain, Z-FR-AMC fluorescence, 0.01% Triton;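 note: plate controls were neutral wells for no effect and buffer without enzyme for full effect; nearly all actives have a fitted effect of over 40% in size; top concentration of the series not given in the record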
# Target sequence (P25779 123-467 limits assumed): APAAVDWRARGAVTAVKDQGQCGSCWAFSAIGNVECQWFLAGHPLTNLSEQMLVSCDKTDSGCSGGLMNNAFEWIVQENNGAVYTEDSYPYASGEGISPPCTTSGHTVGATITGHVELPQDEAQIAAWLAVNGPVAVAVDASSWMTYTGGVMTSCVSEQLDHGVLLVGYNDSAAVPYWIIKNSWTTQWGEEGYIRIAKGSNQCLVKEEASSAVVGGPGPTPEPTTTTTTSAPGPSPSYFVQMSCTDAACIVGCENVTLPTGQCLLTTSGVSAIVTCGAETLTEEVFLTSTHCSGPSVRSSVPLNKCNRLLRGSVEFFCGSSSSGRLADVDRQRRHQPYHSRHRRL
#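 Cruzain (1.5 nM) preincubated 15 min at RT with compound in 100 mM sodium acetate pH 5.5, 5 mM DTT, 0.01% Triton X-100. Reaction started with 2 uM Z-FR-AMC; AMC fluorescence (ex 360/em 450 nm) change over 60 s gave rate.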
# NS1 inh = influenza NS1 inhibition. S. cerevisiae slowed by influenza A NS1, growth recovery by OD600. Potency, µM (titrated, usually from 46.1 µM), for inactives: at the top dose activity, positive = more growth. 270,000 tested, 0.4% active. AID 2326; active means well fitted rising curve with a large enough effect; inconclusive means small, poorly fitted or top-dose-only effect; inactive means no such curve, though single readings can be large or run the other way; note: nearly all actives have a fitted effect of over 50% in size
#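 Recovery from NS1-induced slow growth read by OD600 in budding yeast switched to galactose assay medium (pH 6.0, -URA) at 1:100 dilution. Compound 23 nl per well; the matching strain lacking NS1 serves as control.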
# Marburg entry inh = inhibitors of Marburg virus binding or cell entry; Marburg virus pseudotyped entry inhibition, cell reporter; control for the full effect not named in the record; about a third of the inactives were read at about 46 µM; Potency, µM (series often up to 37.8 µM), without a hit: at the highest dose activity change, negative = inhibition, most hits filed as inhibitors; 300,000 tested, 1.8% active; AID 540276; active = well fitted inhibition curve with a large enough effect; inconclusive = small, poorly fitted or top-dose-only effect, or effect the other way; inactive = flat fitted curve, though single readings scatter; tested in HEK293 cells; about a fifth of its hits are not listed in these tables; note: % is set by controls: 0 for no effect and ±100 for the full control effect; luciferase read-out
# Cruzain inh noDet = cruzain (T. cruzi) inhibition without detergent. 200,000 tested, 2.3% active. purified cruzain, Z-FR-AMC fluorescence, no detergent. P25779. AID 1476. Potency, µM, without a hit: max response, negative = inhibition, actives largely listed as inhibitors;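 note: plate controls were enzyme without inhibitor for no effect and buffer without enzyme for full effect; nearly all actives have a fitted effect of over 40% in size; top concentration of the series not given in the record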
#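 Purified cruzain at 1.5 nM, pre-incubated 15 min with compound at room temperature in 100 mM sodium acetate pH 5.5, 5 mM DTT, 0.00005% Triton X-100. Reaction started with 2 uM Z-FR-AMC; AMC fluorescence increase over 60 s gives rate.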
# Lassa entry inh = blocks Lassa virus binding to or entry into cells. Lassa virus pseudotype entry inhibition, cell reporter; control for the full effect not named in the record. Potency, µM (doses to about 37.9 µM), inactives show at the highest dose activity change, negative = inhibition, most hits filed as inhibitors. 300,000 tested, 1.2% active. AID 540256; active means well fitted inhibition curve with a large enough effect; inconclusive means small, poorly fitted or top-dose-only effect, or effect the other way; inactive means flat fitted curve, though single readings scatter; tested in HEK293 cells; note: % is set by controls: 0 for no effect and ±100 for the full control effect; nearly all actives have a fitted effect of over 50% in size; luciferase read-out
# RE007 growth inh = less growth of the S. pombe RE007 Vpr strain | S. pombe RE007 Vpr strain, BacTiter-Glo ATP luminescence, 24 h; control for the full effect not named in the record | Potency, µM (top dose mostly 92.2 µM), without a hit: top-dose activity change, negative = less growth | 360,000 tested, 0.21% active | AID 651644; active = well fitted falling curve with a large enough effect; inconclusive = small, poorly fitted or top-dose-only effect; inactive = no such curve, though single readings can be large or run the other way;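 note: % is set by controls: 0 for no effect and ±100 for the full control effect; nearly all actives have a fitted effect of over 50% in size; the assay follows cell death caused by Vpr and the record does not say whether a fall means rescue or toxicity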
#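 Fission yeast RE007 carrying one integrated HIV-1 vpr copy, seeded at OD 0.01 in PMG+AL medium with 23 nL pinned compound. Grown 24 h at 30 degrees; viability read by BacTiter-Glo luminescence after 5 min.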
# 2A StopGo = FMDV 2A StopGo reporter, luciferase signal; human cells with a luciferase reporter of 2A StopGo recoding; control for the full effect not named in the record; Potency, µM (titrated, usually from 57.9 µM), for the others: at the highest dose signal change, negative = less light; 410,000 tested, 1.2% active; AID 1159524; active = well fitted falling curve with a large enough effect; inconclusive = small, poorly fitted or top-dose-only effect; inactive = no such curve, though single readings can be large or run the other way; tested in HEK293T cells; note: % is set by controls: 0 for no effect and ±100 for the full control effect; nearly all actives have a fitted effect of over 45% in size; luciferase light after 4 h
# Active calls of the source: *; ? = inconclusive; nt = not tested or not shown; [ ] = dose if it differs, or a comment. Unless noted, calls come from the whole dose curve; as a rule, active = well fitted curve in the direction sought with a large enough effect; inconclusive = small, poorly fitted or top-dose-only effect, or another doubt; inactive = no such curve, though single readings can be large; an effect the other way counts as inactive or inconclusive. Potency is the fitted concentration of half-maximal effect.
SMILES,SARS PLpro yeast,Cruzain Triton,NS1 inh,Marburg entry inh,Cruzain inh noDet,Lassa entry inh,RE007 growth inh,2A StopGo
CC1CCC/C(=C\Nc2ccc3c(c2)OCO3)C1=O (centres undefined),2%,-1.0%,6%,5%,?,12%,-10%,46%
Cc1cc(NCc2ccc(Cl)cc2)n2cnnc2n1,nt,-2.3%,nt,2%[46.1 µM],-15%,10%[46.1 µM],nt,?
CCc1sc(-c2ccccc2)nc1C(=O)OC,0%,nt,0%,nt,nt,nt,-23%,34%[activator]
CSc1ccc(Cl)c(C(=O)OCC(=O)NC2CC2)c1,0%,2.2%,-7%,2%[46.1 µM],-1%,1%,20%,4%
CCC1(CC)Cc2ccccc2-c2nc(NCCCO)[nH]c(=O)c21,1%,nt,-2%,9%[46.1 µM],nt,5%,12%,-11%
Cc1cc(C(=O)N2CCC(C(F)(F)F)n3nccc32)on1 (centres undefined),?,1.8%,?,?,6%,5%,17%,11%
CCOC(=O)c1ccc(NC(=O)CN2C(=O)CNC2=O)cc1,26%,-1.3%,-9%,0%,4%,4%,20%,58%
O=C(C1Cc2ccccc2CN1S(=O)(=O)c1cccs1)N1CCCCCC1 (centres undefined),-8%,-4.9%,-11%,-19%,-10%,0%,13%,46%[activator]
Cc1onc(-c2c(F)cccc2Cl)c1C(=O)OCC(=O)NC(N)=O,2%,nt,7%,-9%[46.1 µM],nt,nt,13%,?
CN(C(=O)COC(=O)/C=C/c1cccs1)c1c(N)n(Cc2ccccc2)c(=O)[nH]c1=O,13%,nt,nt,13%[46.1 µM],nt,1%,-5%,7%
O=C(COc1ccc2ccccc2c1)N1CCN(C(=O)c2ccco2)CC1,-2%,nt,nt,14%[46.1 µM],nt,7%,-2%,-25%
CCN1CCN(C(=O)COc2ccc(S(=O)(=O)N(C)Cc3ccccc3)cc2)CC1,nt,3.5%,14%,-14%,2%,16%,-14%,-21%
CNc1ccccc1C(C)(C)c1cc(-c2cc(C)cc(C)c2)no1,-25%,-8.8%,3%,?,-6%,?,-14%,0%
CCOC(=O)Cc1csc(SCC(=O)NC2CCC(C)CC2)n1 (centres undefined),-6%,nt,nt,9%,nt,18%,16%,-4%
Oc1ccccc1N1CCN(c2ccc3ccccc3n2)CC1,-8%,nt,0%,?,nt,nt,?,-19%
NS(=O)(=O)c1c(Sc2ccccc2C(=O)O)ccc2ccccc12,2%,nt,9%,nt,nt,nt,-1%,34%[activator]
O=C(Cc1ccc(Br)cc1)Nc1ncc([N+](=O)[O-])s1,-5%,nt,-30%,nt,nt,nt,-14%,12%
COC(=O)C1CC(C(=O)OC)C2C(C(=O)OC)CC(C(=O)OC)C12 (centres undefined),nt,nt,nt,?,nt,?,-2%,-12%
O=C(O)c1ccc2c3n(nc2c1)-c1ccc(Cl)cc1CO3,-4%,nt,-6%,nt,nt,nt,-5%,7.9µM*
CCOC(=O)C1C(=O)NC(N2CCN(c3ccccc3)CC2)=NC1c1ccco1 (centres undefined),3%,6.6%,-7%,-4%,5%,0%,-6%,7%

# Profiles, looked up by structure. Values in the order: SARS PLpro yeast	Cruzain Triton	NS1 inh	Marburg entry inh	Cruzain inh noDet	Lassa entry inh	RE007 growth inh	2A StopGo
# CCOC(=O)Cc1csc(SCC(=O)NC2CCC(C)CC2)n1 (centres undefined) across the screens: -6%	nt	nt	9%	nt	18%	16%	-4%
# O=C(COc1ccc2ccccc2c1)N1CCN(C(=O)c2ccco2)CC1 across the screens: -2%	nt	nt	14%[46.1 µM]	nt	7%	-2%	-25%

# Remaining list, next part
SMILES,SARS PLpro yeast,Cruzain Triton,NS1 inh,Marburg entry inh,Cruzain inh noDet,Lassa entry inh,RE007 growth inh,2A StopGo
CCCCN(CCCC)C(=O)CN(C)S(=O)(=O)c1ccc2c(c1)c(=O)n(C)c(=O)n2C,nt,1.1%,nt,-5%[46.1 µM],?,3%[46.1 µM],nt,-7%
CCCCCC[n+]1c(-c2ccccc2)csc1Nc1ccccc1,-84%,-8.3%,-32%,12%,3%,-11%,9%,?
CS(=O)(=O)C1=NSC2=NC(=O)/C(=C\c3ccc(OS(=O)(=O)c4ccccc4)cc3)C(=N)N21,-5%,nt,19%,nt,nt,nt,2%,15%
Cn1c(NCc2ccco2)nc2c1c(=O)n(Cc1ccc(Cl)cc1)c(=O)n2C,-3%,-4.5%,-48%,?,-4%,?,6%,-36%
CCOc1cc(C(=O)NC(=S)Nc2ccc(Cl)c(C(=O)O)c2)cc(OCC)c1OCC,1%,nt,20%,-20%[46.1 µM],nt,?,-15%,-11%
Cc1ccc(Cn2cnc3ccccc32)cc1C,26%,-4.8%,-25%,-13%,7%,-1%,?,?
CCS(=O)(=O)c1ncc(Cl)c(C(=O)N2CCN(c3cccc(Cl)c3)CC2)n1,nt,-6.8%,nt,5.6µM*,11%,?,nt,14µM*
COCCN(C(=O)c1ccc(OCC(C)C)cc1)c1c(N)n(Cc2ccccc2)c(=O)[nH]c1=O,1%,nt,nt,-8%[46.1 µM],nt,-1%,5%,-19%
CC(=O)C1=C(C)NC(=O)NC1c1cccc(O)c1 (centres undefined),2%,3.2%,6%,0%,-14%,0%,8%,-24%
CN(C)c1ccc(NS(=O)(=O)c2cc3c4c(c2)CC(=O)N4CCC3)cc1,2%,nt,11%,nt,nt,nt,-12%,11%

# Overlap with the part before: two compounds, followed by the next part.
SMILES,SARS PLpro yeast,Cruzain Triton,NS1 inh,Marburg entry inh,Cruzain inh noDet,Lassa entry inh,RE007 growth inh,2A StopGo
CC(=O)C1=C(C)NC(=O)NC1c1cccc(O)c1 (centres undefined),2%,3.2%,6%,0%,-14%,0%,8%,-24%
CN(C)c1ccc(NS(=O)(=O)c2cc3c4c(c2)CC(=O)N4CCC3)cc1,2%,nt,11%,nt,nt,nt,-12%,11%
O=C1c2nc3ccccn3c2C(=O)N1Cc1ccccc1,1%,1.8%,13%,6%,?,-4%,3%,nt
CCOC(=O)c1cc2c(ccn2C)n1CC(=O)N1CCN(c2cccc(C(F)(F)F)c2)CC1,6%,-4.8%,27%,-1%,?,2%,16%,0%
CC1=Nc2ncnn2C(c2ccccc2)/C1=N\O (centres undefined),-1%,1.4%,7%,-20%,-6%,-11%,-11%,nt
CCC(=O)N1CCc2cc(S(=O)(=O)CCC(=O)Nc3ccc(OC(F)(F)F)cc3)ccc21,nt,-5.1%,nt,-2%[46.1 µM],13%,31%[46.1 µM],nt,-30%
CCc1ccc(-n2nc3ccc(NC(=O)c4ccc5c(c4)OCO5)cc3n2)cc1,7%,-1.1%,3%,-17%,10µM*,-8%,-3%,5%
CCc1nonc1NC(=O)COc1ccc(Cl)c(C)c1,-1%,nt,-26%,nt,nt,nt,4%,19%
Cn1cccc1CC(=O)NNC(=O)Nc1ccccc1F,-1%[6.58 µM],nt,nt,18%,nt,-11%,-21%,16%
CCC(C)C(NC(=O)C1CCC(C)CC1)C(=O)NCCc1ccc(S(N)(=O)=O)cc1 (centres undefined),-1%,nt,9%,nt,nt,nt,-5%,-19%
COc1cccc(C2CC(c3ccc(C)cc3)n3nc(N)nc3N2)c1 (centres undefined),2%,-3.0%,16%,-1%,-1%,nt,10%,-5%
CC(C)c1ccc(NC(=S)NN2CCOCC2)cc1,-13%,2.0%,11%,?,-4%,1%,-7%,75%[activator]
COc1ccc(-c2c(-c3ccccc3)c(C(=O)C(=O)NCCCN(C)C)n3ccc4cc(OC)c(OC)cc4c23)cc1OC,2%,nt,4%,?,nt,-13%,-18%,32%[activator]
Cc1oc(-c2ccccc2F)nc1CS(=O)(=O)CC(=O)NCCCN(C)C1CCCCC1,5%,3.2%,6%,?,-1%,11%,1%,-7%
Cc1ccc2occ(CC(=O)Nc3c(C)cccc3C)c2c1,nt,-2.9%,nt,?,?,10%[46.1 µM],nt,-13%
CCCC1Oc2ccccc2C(=O)N(CC(=O)c2ccc3c(c2)OCCO3)C1=O (centres undefined),-4%,nt,-7%,?,nt,?,8%,9%
COc1ccc2cc3c(N)nn(C(=O)Cc4ccc(Cl)cc4)c3nc2c1,-3%,-2.8%,11%,nt,?,nt,-8%,-3%
COc1ccc(OCC(=O)N2CCN(C(C)C)CC2)cc1,-18%,1.8%,7%,3%,-10%,25%,-3%,0%
CC(NC(=O)c1cc2sccc2n1C)c1ccc2c(c1)OCCO2 (centres undefined),-2%,-2.6%,10%,?,-1%,?,0%,0%
CCCC(=O)NNC(=O)CCC(=O)NCc1ccccc1,-6%,-1.4%,10%,0%,11%,-7%,-5%,4%
Cc1cc(C)nc(SCCN(C)C)n1,0%,nt,2%,nt,nt,nt,-7%,-12%
CCOC(=O)CNC(=O)C(=O)c1c(O)[nH]c2ccccc12,-14%,-4.6%,-30%,21%,-10%,4%,?,10%
CCOC(=O)C1CCN(C(=O)C2CCN(c3nc4ccc(OC)cc4s3)CC2)CC1,-7%,2.0%,-17%,?,?,?,-20%,?
COc1cc(OC)cc(C(=O)Nc2ccc(C(=O)c3ccncc3)cc2)c1,-1%,nt,-17%,nt,nt,nt,9%,-21%
CC(=O)NC1CC2CCCC(C1)N2C(=O)Nc1ccccc1 (centres undefined),7%,2.5%,5%,?,2%,1%,0%,-12%
Cc1cc(OCC(=O)NC2CCS(=O)(=O)C2)c2c3c(c(=O)oc2c1)CCC3 (centres undefined),-1%,-10%,-11%,-1%,28%,8%,0%,-25%
Cc1ccc(S(=O)(=O)c2nc(-c3ccc(F)cc3)oc2SCC(N)=O)cc1,4%,-2.9%,-3%,?,14%,?,29%,10%
COc1ccccc1C(=O)Nc1nnc2n1CCS2,nt,1.0%,nt,nt,-4%,10%[46.1 µM],nt,43%[activator]
Cc1noc(C)c1C(=O)N1CCCC1,-3%,0.2%,-8%,15%,2%,0%,-3%,-12%
